Screens deposited in PubChem BioAssay by National Center for Advancing Translational Sciences (NCATS).
nsP2pro primary: blocks chikungunya virus nsP2 protease peptide cleavage; Q8JUX6; FRET peptide cleavage, nsP2pro, fluorescence 1 h; Potency, µM (highest dose often 24.9 µM), for inactives: top-dose activity change, negative = inhibition, actives largely listed as inhibitors; 1.1% of 31,000 active; AID 1964107; active means well fitted inhibition curve with a large enough effect; inconclusive means small, poorly fitted or top-dose-only effect; inactive means no such curve, though single readings can be large or run the other way; further: nearly all actives have a fitted effect of over 60% in size; a reference inhibitor and vehicle were the controls
Starred values were filed as active, the others as inactive; i = inactive; ? = inconclusive; & = joins results of further samples; [ ] = another dose, or the depositor's remark. On the % scale 0 is the no-effect control and ±100 the full control effect; potency means the concentration at half of the fitted maximal effect.

SMILES	nsP2pro primary
CCCn1c(C)nc2c(N3CCCN(Cc4ccccc4)CC3)nc(C)nc21	i
Cc1cc(NS(=O)(=O)c2ccc(N)cc2)no1	13.8%
Cc1ccc(S(=O)(=O)NCc2ccc(C(=O)NCCN(Cc3ccccc3)C(C)C)cc2)cc1	-1.6%
CC1CCCCN1CCCNC(=O)CN1C(=O)c2cccnc2Oc2ccccc21 (stereo unspecified)	-6.4%
COC(=O)[C@@H](N)CS	11.1µM*
Cc1ccc(Cl)cc1N1CCN(C(=O)C2CCN(Cc3nc(-c4cccc(Cl)c4)oc3C)CC2)CC1	2.1%
CCc1nc2ccc(C(=O)N3CCN(c4cc(C)ccc4C)CC3)cc2nc1CC	-18.1%
COC(=O)[C@@H]1Cc2ncn(Cc3ccc(Cl)cc3)c2CN1Cc1cccnc1	-6.2%[39.2 µM]
CN(Cc1ccc2nsnc2c1)Cc1cc2n(n1)CCCNC2	-21.8%
C[C@@H](Oc1cc(-n2cnc3ccc(OC4CCN(C)CC4)cc32)sc1C(N)=O)c1ccccc1C(F)(F)F	199.1%[activator]
Cc1ccc(/C=C/c2onc(C)c2S(=O)(=O)N2CCC(C(=O)N3CCC(N(C)C(C)C)CC3)CC2)cc1	102.8%[activator]
CN(C(=O)CC(=O)Nc1ccc2nc3n(c(=O)c2c1)CCCCC3)c1ccccc1F	-22.2%
CCCC(C)N1CC2(CCN(C(=O)c3cnn4c3CCCC4)CC2)OC1=O (stereo unspecified)	?
Cc1ncccc1OC1(C(=O)O)CCN(C(=O)Cc2ccn(C)c2)CC1	-19.3%
COc1cccc(CNC(=O)NC2CCc3n[nH]c(=O)n3CC2)c1 (stereo unspecified)	4.8%
COc1ccc(N2CCN(c3oc(/C=C/c4cccc(OC)c4)nc3C#N)CC2)cc1	-20.0%
CC(C)(O)C1=CCC23COC(C2)C(O)(C(=O)O)CCC13 (stereo unspecified)	-13.8%
NCC(=O)N1CCC2(CC1)C(=O)NCN2C(=O)c1ccc(Cl)cc1	-25.7%
O=C(NCCc1ccccc1)c1nc2sccn2c1-c1cccnc1	3.0%
CCN(CC)C(=O)c1cc2c(s1)CCC(C(=O)N1CCN(c3ccccn3)CC1)C2 (stereo unspecified)	-9.4%

Brought forward from above: 7 compounds, followed by the next part.
SMILES	nsP2pro primary
Cc1ncccc1OC1(C(=O)O)CCN(C(=O)Cc2ccn(C)c2)CC1	-19.3%
COc1cccc(CNC(=O)NC2CCc3n[nH]c(=O)n3CC2)c1 (stereo unspecified)	4.8%
COc1ccc(N2CCN(c3oc(/C=C/c4cccc(OC)c4)nc3C#N)CC2)cc1	-20.0%
CC(C)(O)C1=CCC23COC(C2)C(O)(C(=O)O)CCC13 (stereo unspecified)	-13.8%
NCC(=O)N1CCC2(CC1)C(=O)NCN2C(=O)c1ccc(Cl)cc1	-25.7%
O=C(NCCc1ccccc1)c1nc2sccn2c1-c1cccnc1	3.0%
CCN(CC)C(=O)c1cc2c(s1)CCC(C(=O)N1CCN(c3ccccn3)CC1)C2 (stereo unspecified)	-9.4%
CC(C)CNC(=O)c1nc(-c2ccc(Cl)cc2)c2cnccn12	-2.5%[39.2 µM]
CCOC(=O)[C@H](CCc1ccccc1)N[C@H]1CCCN2CCC[C@@H](C(=O)O)N2C1=O	3.2%&-5.7%&0.8%
CC(=O)N[C@H]1[C@H](O[C@H]2CC[C@@]3(C)C(CC[C@]4(C)C3CC=C3[C@@H]5CC(C)(C)CC[C@]5(C(=O)OC5OCC(O)C(O)C5O)CC[C@]34C)C2(C)C)O[C@H](COC2OC(C)C(O)C(OC3OC(C)C(O)C(O)C3O)C2O)[C@@H](O)[C@@H]1O (stereo partly specified)	-5.3%[5.1 µM]
O=C(Cn1c(=O)oc2cc(S(=O)(=O)NCc3ccccc3)ccc21)Nc1ccc(F)c(Cl)c1	-15.6%
O=[S+]([O-])(Nc1ccc(C2CCNCC2)cc1)c1ccc(NCc2ccc(Br)cc2O)cc1	?
C=CC(C)(C)c1[nH]c2cccc3c2c1C[C@@H]1[C@@H]3[C@@H](OC(C)=O)[C@H](C)CN1C	-16.0%
Cc1cc2cc(-c3c(C)noc3C)nc(N3CCN(c4ccccn4)CC3)c2o1	i
CCN(c1cc(C)cc(C)c1)S(=O)(=O)c1nnc(NC(=O)c2ccco2)s1	-16.8%
O=C(c1ccccc1F)N1CC2(C1)C(=O)Nc1ccccc12	-6.0%[39.2 µM]
N#Cc1ccc(NS(=O)(=O)c2ccc(-c3cnc(C4CC4)o3)cc2)cc1	-3.7%
COc1ccc(OC)c(NC(=O)C2CCN(S(=O)(=O)c3ccc4c(c3)CCCC(=O)N4)CC2)c1	-12.4%
O=C1CCN(Cc2ccncc2)CCCC(CO)CCN1 (stereo unspecified)	0.9%
C/C=C(\C)C(=O)O[C@@H]1CC2[C@@H](CC=C3C[C@@H](O[C@H]4C[C@H](OC)[C@H](O[C@H]5C[C@H](OC)[C@H](O[C@@H]6O[C@H](C)[C@@H](O[C@H]7C[C@H](OC)[C@H](O[C@@H]8O[C@H](CO)[C@@H](O)[C@H](O)[C@H]8O)[C@@H](C)O7)[C@H](OC)[C@H]6O)[C@@H](C)O5)[C@@H](C)O4)CC[C@@]32C)[C@@]2(O)CC[C@H](C(C)=O)[C@@]12C (stereo partly specified)	-6.1%[5.1 µM]
Cc1c(C(=O)NCc2ccccc2Cl)sc2nc3n(c(=O)c12)CCCCC3	-11.8%
CC(CC(C)O[C@@H]1O[C@H](CO)[C@@H](O)[C@H](O)[C@H]1O)OC(=O)/C=C/c1ccc(O)cc1 (stereo partly specified)	139.9%[activator][10 µM]
O=C1Nc2ccc(Cl)cc2[C@@](C#CC2CC2)(C(F)(F)F)O1	?
COc1cccc(NS(=O)(=O)c2ccc3c(c2)CCC(=O)N3)c1	i
Cc1ccc(OCCSc2nc3ccccc3n2CC(=O)N2CCCCC2)c(C)c1	-9.0%
COc1ccc(-c2ccc3nc(-c4cc(C)ccc4F)oc3c2)c(OC)c1OC	2.0%
O=C(NCc1ccc(Cl)cc1Cl)c1cccc(N2CCCS2(=O)=O)c1	-18.6%
C=C[C@]1(C)C[C@@H](OC(=O)CSC2C[C@H]3CC[C@@H](C2)N3C)[C@]2(C)[C@H](C)CC[C@]3(CCC(=O)[C@H]32)[C@@H](C)[C@@H]1O (stereo partly specified)	6.2%
O=C1NC2(CCN([S+](=O)([O-])c3ccccc3)C2)Oc2ccccc21 (stereo unspecified)	-11.3%[39.2 µM]
Fc1cccc(-c2ccc(Nc3nc(-c4ccncc4)nc4ccccc34)cc2F)c1	i
O=C(Nc1ccc(Cl)nc1)Nc1nnc(-c2ccncc2)s1	i
C/C=C1\[C@H](O[C@@H]2O[C@H](CO)[C@@H](O)[C@H](O)[C@H]2O)OC=C(C(=O)OC)[C@H]1CC(=O)OC	4.2%[10 µM]
CC(CCC1(O)OC2CC3C4CCC5CC(O[C@@H]6O[C@H](CO)[C@@H](O)[C@H](O)[C@H]6O[C@@H]6OC[C@@H](O)[C@H](O)[C@H]6O)C(O)CC5(C)C4CCC3(C)C2C1C)CO[C@@H]1O[C@H](CO)[C@@H](O)[C@H](O)[C@H]1O (stereo partly specified)	38.8%[5.1 µM]
COc1ccc(CNC(=O)c2ccc(-c3nc(CSc4ccccc4)c(C)o3)cc2)cc1OC	-24.9%
Cc1nnc(NC(=O)c2cccn(Cc3ccc(Cl)cc3)c2=O)s1	-17.9%
CCN(C(=O)c1oc2ccc(S(=O)(=O)N3CCCCCC3)cc2c1C)c1ccccc1	-4.5%
CC1(C)CC[C@]2(C(=O)O[C@@H]3O[C@H](CO)[C@@H](O)[C@H](O)[C@H]3O)CC[C@]3(C)C(=CCC4[C@@]5(C)CC[C@H](O[C@@H]6O[C@H](C(=O)O)[C@@H](O[C@@H]7O[C@H](CO)[C@@H](O)[C@H](O)[C@H]7O)[C@H](O)[C@H]6O)C(C)(C)C5CC[C@]43C)C2C1 (stereo partly specified)	-5.0%[5.1 µM]
Cc1ccc(C(=O)N2c3ncnn3C3(CCCCC3)[C@@H]3CCCC[C@@H]32)cc1	-1.2%
CC(=O)Nc1cccc(S(=O)(=O)Nc2ccc(C)c(C)c2)c1	i
CC1=C(C(=O)Nc2ccccc2C)C(c2ccccc2Br)N=C(Nc2nc3ccccc3o2)N1 (stereo unspecified)	-7.8%
O=C(c1c[nH]c(=O)[nH]1)N1CC[C@@H]2[C@@H](CCC(=O)N2CC2CCNCC2)C1	-10.8%
CCC(C(=O)Nc1ccccc1OC)n1c(C(=O)OC)cc2sc(Cl)cc21 (stereo unspecified)	9.7%
CC1CCC2(CC1)NC(=O)N(CC(=O)N1CCc3ccccc31)C2=O (stereo unspecified)	3.5%
Cc1noc(C)c1-c1ccc2c(n1)CN(CCOc1ccccc1)C(=O)CO2	3.9%[39.2 µM]
CCC(=O)N1CCc2cc(Br)cc(S(=O)(=O)N3CCCC(C(=O)NCc4ccc(C)cc4)C3)c21 (stereo unspecified)	-21.5%
C=C[C@H]1[C@H](O[C@@H]2O[C@H](CO)[C@@H](O)[C@H](O)[C@H]2O)OC=C(C(=O)OC)[C@H]1CC(=O)O	-5.9%
O=C(OCC#CCSc1nnc(-c2ccc3ccccc3c2)o1)c1cccc(F)c1	-2.4%
CCOC(=O)c1c(NC(=O)CSc2cn(CCNC(=O)c3ccccc3F)c3ccccc23)sc2c1CCCC2	-20.1%
CC(=O)O[C@H]1[C@H](O)C[C@@]2(C)C(CC[C@]3(C)C2CC=C2C4CC(C)(C)CC[C@]4(C(=O)O)CC[C@]23C)C1(C)C (stereo partly specified)	26.2%[10 µM]
Cc1cn(-c2cc(NC(=O)c3ccc(C)c(Nc4nccc(-c5cccnc5)n4)c3)cc(C(F)(F)F)c2)cn1	3.8%&19.6%&39.5%
O=C(O)C1CN(C(=O)c2ccco2)CCN(C2CCOCC2)C1 (stereo unspecified)	-22.8%
CCC1Oc2ccc(NC(=O)CC(C)(C)C)cc2CN(Cc2ccccc2F)C1=O (stereo unspecified)	i
CO[C@H]1/C=C\O[C@@]2(C)Oc3c(C)c(O)c4c(O)c(c5c(nc6cc(C)ccn65)c4c3C2=O)NC(=O)/C(C)=C\C=C/[C@H](C)[C@H](O)[C@@H](C)[C@@H](O)[C@@H](C)[C@H](OC(C)=O)[C@@H]1C	?
COc1ccc(-c2onc(C)c2C)cc1S(=O)(=O)NCC1CCN(Cc2ccccc2F)CC1	24.1%
CC1CCC2(C)CCC3(C)C(=CCC4C5(C)CCC(O)C(C)(C(=O)O)C5CCC43C)C2C1C (stereo unspecified)	?
O=C(Cn1cc(CNC(=O)c2ccccc2)nn1)Nc1cc(C(F)(F)F)ccc1Cl	-3.7%
NS(=O)(=O)c1cc2c(cc1C(F)(F)F)NCNS2(=O)=O	-3.7%
CC(C)C(NS(=O)(=O)c1ccc2c(c1)oc(=O)n2C)C(=O)NCCc1ccccc1 (stereo unspecified)	-18.5%
CN1C(=O)c2ccccc2Sc2ccc(NC(=O)COc3ccc(Cl)cc3)cc21	-21.2%
Cc1cnccc1CN(C)C(=O)c1cc(COc2ccc(-n3cncn3)cc2)on1	-1.5%
CNC(=O)N1CCC(C2CCN(C(=O)CCc3ccccc3OC)C2)CC1 (stereo unspecified)	-2.7%
COc1cc(C(=O)NCc2ccc(OCCN(C)C)cc2)cc(OC)c1OC	?
CC(C)(C)C(=O)Nc1nnc2n1CCS2	-4.5%
COc1ccc(-c2csc3nc(-c4ccc(Cl)cc4)oc(=O)c23)cc1	-25.8%
Cc1cc(O)c(C(C)C)cc1Cl	1.5%
O=C(NCC1CCOCC1)c1cnc(Nc2ccc(Cl)cc2Cl)nc1C(F)(F)F	-5.1%
CC1=C(c2ccc(C(C)C)cc2)S(=O)(=O)N=C1N1CCC(C(=O)Nc2ccc(C)cc2)CC1	-8.6%
The results go on.
SMILES	nsP2pro primary
COC(=O)C1=CO[C@@H](O[C@@H]2O[C@H](CO)[C@@H](O)[C@H](O)[C@H]2O)[C@@H]2[C@@](C)(O)[C@@H](OC(=O)/C=C/c3ccc(O)cc3)C[C@]12O	49.5%[activator][10 µM]
COc1cccc(N2CCN(C3=Nc4c(F)cccc4[C@H](CC(=O)O)N3c3cc(C(F)(F)F)ccc3OC)CC2)c1	-5.5%&-15.5%
CCN(CC)C(=O)c1ccc(C2=CC3(CCNCC3)Oc3cccc(O)c32)cc1	-12.8%
Cc1nc(CN2CCCC(c3[nH]ncc3Cc3ccccc3)C2)co1 (stereo unspecified)	i
Cc1cnc(-c2ccccc2C(C)C)nc1NCC1CCN(C)CC1	-6.0%
COc1ccc(Br)c2c1-c1nc(NC(=O)c3ccccc3SC)sc1C2	-1.5%
C[C@@H]1O[C@@H](O[C@H]2[C@H](O)[C@@H](O)[C@H](OC[C@H]3O[C@@H](OC(=O)[C@]45CCC(C)(C)C[C@H]4C4=CCC6[C@@]7(C)CC[C@H](O[C@@H]8OC[C@H](O)[C@H](O[C@@H]9O[C@H](CO)[C@@H](O)[C@H](O)[C@H]9O)[C@H]8O)[C@@](C)(CO)C7CC[C@@]6(C)[C@]4(C)CC5)[C@H](O)[C@@H](O)[C@@H]3O)O[C@@H]2CO)[C@H](O)[C@H](O)[C@H]1O (stereo partly specified)	?
CCn1c(=O)c(-c2ccc(-c3cncs3)cc2Cl)cc2cnc(Nc3ccc(N4CCN(C)CC4)cc3)nc21	?
CN(C)c1ccc(-c2nc3ccc(Cl)cn3c2Nc2ccc3c(c2)OCCO3)cc1	-16.4%
CCOC(=O)c1cccc(NC(=O)c2cc3sccc3n2Cc2ccc(Cl)cc2)c1	25.7%
COc1ccc(OCC(=O)N(Cc2cccc(OC)c2)C2CCS(=O)(=O)C2)cc1 (stereo unspecified)	-18.6%
Cc1cc(C(=O)N2CCC(OCC3CC3)C2)n(C)n1 (stereo unspecified)	-5.0%

Only part of the results is shown; rates above refer to the full screens.
